# Source: PubChem BioAssay (ICCB-Longwood Screening Facility, Harvard Medical School)
# Sa growth 42C: inhibitors of Staphylococcus aureus growth at 42 °C; AID 720641; relative growth, % (concentration not given with the values); S. aureus RN4220 growth, OD600, 20 h; hits give low values; 170,000 compounds, 0.53% hits;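 active means growth at 42 °C up to 50% and 20 or more points under that at 30 °C, or under 10% at both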;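 further: 300 nL library stock went into each well; scaled to the means of positive and negative controls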
# GIV Gai3 FP: GIV-Galpha-i interaction inhibition; Galpha-i3/FITC-GIV peptide fluorescence polarization, 90 min; hits give low values; scaled: aluminum fluoride 0%, vehicle 100%; percent of control (FP), % (test concentration not listed); P08753; 210,000 compounds, 0.42% hits;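 active means replicate mean at 85% of control or lower, very high polarization wells dropped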;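 further: wells of about 15 µL received 100 nL stock; the first replicate is given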
# Target sequence (P08753 whole entry, looked up): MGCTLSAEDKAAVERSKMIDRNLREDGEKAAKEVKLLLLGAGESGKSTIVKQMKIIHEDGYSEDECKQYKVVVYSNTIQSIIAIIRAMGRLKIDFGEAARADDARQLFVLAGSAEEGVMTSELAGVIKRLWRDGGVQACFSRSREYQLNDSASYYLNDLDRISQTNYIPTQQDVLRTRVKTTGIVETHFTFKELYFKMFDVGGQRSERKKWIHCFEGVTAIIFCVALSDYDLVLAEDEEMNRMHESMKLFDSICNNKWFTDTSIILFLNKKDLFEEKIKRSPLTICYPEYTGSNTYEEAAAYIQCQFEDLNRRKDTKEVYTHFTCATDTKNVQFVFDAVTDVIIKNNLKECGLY
# HCMV UL50-53 inh: cytomegalovirus nuclear egress complex inhibition. 190,000 compounds, 0.15% hits. HTRF UL50-UL53 interaction, normalized percent inhibition. AID 1918969. inhibition, % (test concentration not listed);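 active means both replicates at 50% or more, plus weaker picks with an unusually low signal ratio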;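 further: stock transfer was 100 nL into about 20 µL; 0% = negative control wells and 100% = wells with untagged competitor protein; inactives centre near -12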
# Sa growth 42C second temp: second read-out of Sa growth 42C, no call of its own (marks repeat the call); relative growth, %; measured here: growth at 30 °C;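 optical density after 20 h as mean of two plates; 100% = untreated growth and lower means inhibition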
# * marks the source's active call; other numbers are inactive results; nt = no result given.
[1] O=C(Cn1nnc(-c2ccccc2)n1)NC(=O)NCc1ccccc1
[2] COc1ccc2ccccc2c1/C=C1/N=C(c2ccc(Cl)c([N+](=O)[O-])c2)OC1=O
[3] CC(Sc1nnc(-c2cccc(Cl)c2)n1N)C(=O)NC1CCCCC1 (centres undefined)
[4] CCN1CCN(/C=N/c2nc3c(s2)CCCC3)CC1
[5] Cc1nc2ccc(NC(=O)N3CCSCC3)cc2s1
[6] Cc1ccccc1NC(=O)c1nc(S(C)(=O)=O)ncc1N(Cc1ccco1)Cc1sccc1C
[7] COc1cc2c(cc1OC)CN(C(=O)c1cccc(N3C(=O)C(C)(C)CS3(=O)=O)c1)CC2
[8] COc1cc(C(=O)N2N=C(c3ccccc3)CC2c2ccccc2)cc(OC)c1OC (centres undefined)
assay / compound | 1 | 2 | 3 | 4 | 5 | 6 | 7 | 8
Sa growth 42C | 103 | nt | 118 | 96 | 87 | 94 | nt | nt
Sa growth 42C second temp | 97 | nt | 96 | 85 | 102 | 86 | nt | nt
GIV Gai3 FP | nt | 101 | nt | nt | nt | 101 | 106 | 100
HCMV UL50-53 inh | -7 | -24 | 9 | -40 | 6 | -17 | -9 | -16

[9] CC1CCN(C(=O)c2ccc(NC(=O)C3CCCO3)cc2)CC1 (centres undefined)
[10] CCOC(=O)CC(=O)Nc1ccc(C(=O)OCC)cc1
[11] CC1=C(CCN2CCN(C/C=C/c3ccccc3)CC2)C(C)(C)CCC1
[12] CC(C)Cn1c(SC(C)C(N)=O)nc2ccccc21 (centres undefined)
[13] CC(C)(C)OC(=O)N1CCC(c2c(C(=O)N3CCOCC3)cnn2-c2cccc(F)c2)CC1
[14] CCSc1nn(CC(=O)Nc2cccc(CC)c2)c(N)c1S(=O)(=O)c1ccc(C)cc1
[15] Cc1ccc(O)c(NC(=O)c2noc3c2CCCC3)c1
[16] CC1=C(C(=O)OC2CCCCCC2)C(c2c(F)cccc2Cl)CC(=O)N1 (centres undefined)
assay / compound | 9 | 10 | 11 | 12 | 13 | 14 | 15 | 16
Sa growth 42C | 89 | 101 | 50 | 107 | 103 | nt | 90 | 85
Sa growth 42C second temp | 90 | 84 | 34 | 95 | 105 | nt | 77 | 100
GIV Gai3 FP | 103 | 104 | 104 | nt | 110 | 104 | 103 | 104
HCMV UL50-53 inh | 3 | -8 | 0 | -12 | nt | 8 | 3 | -11

[17] O=C(NCc1ccccc1)c1nc(-c2ccc(Cl)cc2)n2c1CCCCC2
[18] Cc1ccc(-c2csc3ncn(-n4c(C)ccc4C)c(=O)c23)cc1
[19] CCCCSc1nnc2c(n1)OC(c1ccc(Br)s1)Nc1ccccc1-2 (centres undefined)
[20] COc1cc(/C=c2/sc3nc4ccccc4n3c2=O)ccc1O
[21] Cc1ccc2[nH]c3c(=O)n(CC(=O)NCc4ccccc4F)cnc3c2c1
[22] N#Cc1nc2c(S(=O)(=O)c3ccc(Cl)cc3)c(N)n(Nc3cccc(Cl)c3)c2nc1C#N
[23] c1ccc2c(c1)ncn2CCC1CCCCC1
[24] O=C(c1ccc(Br)cc1)N1Cc2ccccc2NC1=S
assay / compound | 17 | 18 | 19 | 20 | 21 | 22 | 23 | 24
Sa growth 42C | 74 | 107 | 106 | 92 | nt | 96 | 37 | 117
Sa growth 42C second temp | 90 | 92 | 81 | 79 | nt | 103 | 28 | 62
GIV Gai3 FP | 119 | nt | 40* | 280 | 94 | nt | nt | nt
HCMV UL50-53 inh | nt | -15 | -17 | 7 | -14 | -2 | -5 | -10

[25] CCn1nc(C)c(NC(=O)c2cc(Br)ccc2Cl)c1C
[26] N#CC1=C(SCC(=O)Nc2ccc(Br)cc2)NC(=O)CC1c1ccc(Cl)cc1 (centres undefined)
[27] CCOC(=O)N1CCC(NC(=O)CS(=O)(=O)Cc2nc(-c3cccc(OC)c3)oc2C)CC1
[28] COC(=O)c1cc(C)sc1NC(=O)C1CC(=O)NN1Cc1ccccc1 (centres undefined)
[29] CCOC(=O)CSc1nc(N)c(C#N)c(-c2ccc(OCC)cc2)c1C#N
[30] CC12CCC(=O)N1C(C(=O)OCC(=O)Nc1sccc1C#N)CS2 (centres undefined)
[31] O=C(Cn1ccc2cc(S(=O)(=O)N3CCCCC3)ccc21)N1CCCCC1
[32] C=CCn1c(C)cc(C(=O)CSc2nnc3n2CCCCC3)c1C
assay / compound | 25 | 26 | 27 | 28 | 29 | 30 | 31 | 32
Sa growth 42C | 108 | nt | 112 | 77 | nt | 79 | 104 | 100
Sa growth 42C second temp | 106 | nt | 90 | 71 | nt | 95 | 98 | 95
GIV Gai3 FP | 103 | 100 | 100 | 99 | 106 | nt | 101 | nt
HCMV UL50-53 inh | -10 | -12 | -13 | -25 | 44* | -28 | -24 | -10

[33] CC1=C(C(=O)OCC2CCCO2)C(c2cc3c(cc2Br)OCO3)NC(=O)N1 (centres undefined)
[34] CS/C(=N\S(=O)(=O)c1ccc(C)cc1)N1CCN(C(=O)c2cccs2)CC1
[35] Cc1cc(C)cc(-n2cc3c(=O)n(C)c(=O)n(C)c3c2)c1
[36] Cn1c(=O)n(CCc2ccccc2)c2ccccc21
[37] O=C(O)c1ccc(-c2ccc(O)c(F)c2)cc1
[38] O=C1Nc2cc(Cl)ccc2SC2CCCCC2O1 (centres undefined)
[39] COc1ccccc1NS(=O)(=O)c1cc(N2C(=O)CCS2(=O)=O)ccc1OC
[40] Cc1ccc(NC(=O)/C=C2\SC(=O)NC2=O)cc1
assay / compound | 33 | 34 | 35 | 36 | 37 | 38 | 39 | 40
Sa growth 42C | nt | 67 | 99 | 97 | 94 | 88 | nt | 76
Sa growth 42C second temp | nt | 95 | 95 | 89 | 94 | 88 | nt | 65
GIV Gai3 FP | 109 | nt | 109 | 101 | 97 | 100 | 103 | 100
HCMV UL50-53 inh | -8 | -28 | -8 | 12 | -10 | -35 | 1 | -34

[41] COc1ccc(Cl)cc1NC(=O)NCCn1c(=O)oc2ccc(C)cc21
[42] COc1ccc(CN)cc1Cn1cccn1
[43] CCOC(=O)c1cccc(NC(=O)c2cc3c(=O)[nH]c4ccccc4c3n2C)c1
[44] CCOC(=O)c1cc(-c2ccccc2)n(CCCC(=O)Nc2cccc(Cl)c2C)c1C
[45] COc1ccc(NS(=O)(=O)c2ccc(C)c(Cl)c2)cc1
[46] CN(C)/C=N/c1nc(-c2ccc3c(c2)OCO3)cs1
[47] CCNC(=O)N1CCCC(c2cccc(C(=O)NCC3CCCO3)c2)C1 (centres undefined)
[48] Cc1ccc(C2=NN(CC(=O)NCCN(CC(C)C)CC(C)C)C(=O)CC2)cc1
assay / compound | 41 | 42 | 43 | 44 | 45 | 46 | 47 | 48
Sa growth 42C | 106 | 88 | 89 | 120 | 80 | 84 | nt | 115
Sa growth 42C second temp | 93 | 89 | 99 | 92 | 86 | 83 | nt | 100
GIV Gai3 FP | 99 | 104 | 99 | 101 | nt | nt | 107 | 99
HCMV UL50-53 inh | -11 | -15 | 2 | nt | -25 | -69 | -9 | nt

[49] Cn1c(CNC(=O)c2cccs2)cc2ccccc21
[50] O=C(CC(C(=O)N1CCc2ccccc21)n1ccnc1)N1CCc2ccccc2C1 (centres undefined)
[51] O=C(COc1ccc(Cl)cc1)Nc1ccc2nc3n(c(=O)c2c1)CCCCC3
[52] CCOC(=O)c1ccc(-n2c(CCC(=O)O)ccc2-c2ccccc2)cc1O
[53] O=C(O)CCSc1nccn1Cc1ccccc1
[54] CC1(C(=O)NC2CCCCC2)Cc2ccccc2C(=O)N1Cc1ccc(Cl)cc1 (centres undefined)
[55] Cc1cc2nc(COc3cc(Cl)ccc3NC(=O)CN3C(=O)c4ccccc4C3=O)cc(=O)n2o1
[56] CC(Sc1nnc(COc2ccc(Cl)cc2)n1C)C(N)=O (centres undefined)
assay / compound | 49 | 50 | 51 | 52 | 53 | 54 | 55 | 56
Sa growth 42C | 103 | 101 | 118 | 95 | 107 | 107 | nt | 89
Sa growth 42C second temp | 76 | 91 | 84 | 100 | 112 | 90 | nt | 85
GIV Gai3 FP | 101 | 106 | 103 | 104 | 99 | 107 | 99 | nt
HCMV UL50-53 inh | -5 | nt | nt | -44 | 30 | -26 | 11 | -29

[57] O=C1c2cccc3cccc(c23)C(=O)N1CC1CCN(CC(O)COc2ccccc2F)CC1 (centres undefined)
[58] CCOC(=O)c1c(S(=O)(=O)N2CCCC(C(=O)Nc3ccccn3)C2)c(C)n(C)c1C (centres undefined)
[59] COc1ccccc1NC(=O)C1CC(=O)OC12CCOC(C)(C)C2 (centres undefined)
[60] CSc1ccc(C2CC(=O)Nc3c2c(=O)nc(SC)n3C)cc1 (centres undefined)
[61] O=C(Cc1csc(NC(=O)Nc2ccccc2)n1)Nc1cccc(Cl)c1
[62] Cc1nonc1NC(=O)c1cccc(Cl)c1
[63] O=C(c1ccc(CS(=O)(=O)c2ccc(Br)cc2)o1)N1CCN(Cc2ccc3c(c2)OCO3)CC1
[64] CC(=O)Nc1c(C(=O)N2CCN(c3ccccc3)CC2)oc2ccccc12
assay / compound | 57 | 58 | 59 | 60 | 61 | 62 | 63 | 64
Sa growth 42C | nt | 126 | 99 | 79 | nt | nt | 107 | 92
Sa growth 42C second temp | nt | 90 | 89 | 90 | nt | nt | 93 | 87
GIV Gai3 FP | 98 | 98 | nt | 99 | 105 | 100 | 105 | 111
HCMV UL50-53 inh | -94 | nt | 3 | 0 | -13 | -3 | 5 | 15

[65] N#Cc1ccccc1CSc1nc2c(sc(=S)n2Cc2ccco2)c(=O)n1-c1ccc(F)cc1
[66] O=c1[nH]cnc2c1sc1nc(-c3ccccc3)ccc12
[67] Cc1[nH]c(SCC(=O)O)nc1Cc1ccccc1
[68] CC1CCCCC1NC(=O)Cn1ncc2ccccc21 (centres undefined)
[69] CCC(C(=O)Nc1cccc2nsnc12)N1C(=O)COc2ccccc21 (centres undefined)
[70] Cn1c(C(C#N)C(=O)c2ccccc2I)nc2ccccc21 (centres undefined)
[71] CCOC(=O)c1ccccc1Nc1nc2ccccc2c2nnc(C)n12
[72] OC1(C#Cc2ccccc2)CCCCC1
assay / compound | 65 | 66 | 67 | 68 | 69 | 70 | 71 | 72
Sa growth 42C | 127 | nt | 95 | 103 | nt | 96 | 101 | 111
Sa growth 42C second temp | 103 | nt | 102 | 97 | nt | 100 | 64 | 118
GIV Gai3 FP | 104 | 109 | nt | 102 | 105 | 99 | 100 | 95
HCMV UL50-53 inh | -22 | -32 | 8 | 2 | -47 | -18 | -22 | 4

# A draw from above in order of count of non-hydrogen atoms, low to high:
[72] OC1(C#Cc2ccccc2)CCCCC1
[62] Cc1nonc1NC(=O)c1cccc(Cl)c1
[67] Cc1[nH]c(SCC(=O)O)nc1Cc1ccccc1
[66] O=c1[nH]cnc2c1sc1nc(-c3ccccc3)ccc12
[56] CC(Sc1nnc(COc2ccc(Cl)cc2)n1C)C(N)=O (centres undefined)
[70] Cn1c(C(C#N)C(=O)c2ccccc2I)nc2ccccc21 (centres undefined)
[60] CSc1ccc(C2CC(=O)Nc3c2c(=O)nc(SC)n3C)cc1 (centres undefined)
[59] COc1ccccc1NC(=O)C1CC(=O)OC12CCOC(C)(C)C2 (centres undefined)
[69] CCC(C(=O)Nc1cccc2nsnc12)N1C(=O)COc2ccccc21 (centres undefined)
[64] CC(=O)Nc1c(C(=O)N2CCN(c3ccccc3)CC2)oc2ccccc12
assay / compound | 72 | 62 | 67 | 66 | 56 | 70 | 60 | 59 | 69 | 64
Sa growth 42C | 111 | nt | 95 | nt | 89 | 96 | 79 | 99 | nt | 92
Sa growth 42C second temp | 118 | nt | 102 | nt | 85 | 100 | 90 | 89 | nt | 87
GIV Gai3 FP | 95 | 100 | nt | 109 | nt | 99 | 99 | nt | 105 | 111
HCMV UL50-53 inh | 4 | -3 | 8 | -32 | -29 | -18 | 0 | 3 | -47 | 15

[58] CCOC(=O)c1c(S(=O)(=O)N2CCCC(C(=O)Nc3ccccn3)C2)c(C)n(C)c1C (centres undefined)
[63] O=C(c1ccc(CS(=O)(=O)c2ccc(Br)cc2)o1)N1CCN(Cc2ccc3c(c2)OCO3)CC1
[55] Cc1cc2nc(COc3cc(Cl)ccc3NC(=O)CN3C(=O)c4ccccc4C3=O)cc(=O)n2o1
assay / compound | 58 | 63 | 55
Sa growth 42C | 126 | 107 | nt
Sa growth 42C second temp | 90 | 93 | nt
GIV Gai3 FP | 98 | 105 | 99
HCMV UL50-53 inh | nt | 5 | 11

# Next section
[73] CCCCOCc1cc(CN2CCN(c3cccc(Cl)c3)CC2)c(O)c2ncccc12
[74] Cc1ccc(N2C(N)=NC(N)=NC2(C)C)cc1
[75] O=C(O)CNc1c(F)c(F)nc(F)c1F
[76] COc1ccc(CNC(=O)CCCN2C(=O)CSc3c2c(C)nn3-c2ccccc2)cc1
[77] Cc1ccc2cc(C)c(N3CC(C)OC(C)C3)nc2c1 (centres undefined)
[78] COc1ccc(OC)c(S(=O)(=O)NC2CCCC(C)C2C)c1 (centres undefined)
[79] NNC(=O)c1cncn1-c1ccccc1
[80] O=C(c1cc(-c2ccncc2)n[nH]1)N1CCCC(C(=O)N2CCc3ccccc32)C1 (centres undefined)
[81] COc1ccc(C2Nc3ccccc3O2)cc1 (centres undefined)
assay / compound | 73 | 74 | 75 | 76 | 77 | 78 | 79 | 80 | 81
Sa growth 42C | 87 | 96 | 85 | 107 | 100 | 105 | 77 | nt | 75
Sa growth 42C second temp | 100 | 78 | 100 | 91 | 63 | 101 | 87 | nt | 28
GIV Gai3 FP | 105 | 105 | 101 | 100 | nt | 105 | nt | 101 | 102
HCMV UL50-53 inh | 7 | -28 | nt | nt | -31 | -2 | -16 | -20 | -53
